Beta cell apopt: blocks beta cell apoptosis; INS-1E cytokine-induced death, ATP luminescence, 48 h; percent of positive-control rescue, neutral wells zero; protection from apoptosis, % (concentration not given with the values); 0.8% of 300,000 active; AID 435005;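 active means all replicates at 75% or more, or half of them and the mean; inconclusive means half reach 75% but not the mean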;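 further: 0% = cytokine-treated negative control wells and 100% = positive control rescue; higher means more ATP so stronger rescue from cytokine killing; wells of about 40 µL received 100 nL stock; the first replicate is given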
Ecoli rRNA inh: inhibits bacterial ribosomal RNA function over humanized ribosomes; AID 720706; 1.6% of 350,000 active; GFP signal change (wild-type ribosome), % (no concentration beside the values); E. coli WT GFP vs humanized-ribosome RFP mutants, fluorescence, 24 h; hits give low values; DMSO median 0, no signal -100;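 active means significant combined selectivity score with lowered wild-type GFP, culture density cut under 30%, mutant RFP and density less affected; inactive means any of these conditions unmet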; further: one replicate is shown; some compounds called inactive have numbers as strong as hits
T cruzi repl: blocks replication of Trypanosoma cruzi; T. cruzi beta-gal in NIH3T3, luminescence, 90 h; AID 1885; inhibition, % (no concentration beside the values); 1.4% of 300,000 active;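 active means mean inhibition across valid replicates above about 55%, limit read from the data; inconclusive means mean below that limit but half or more replicates reach it; inactive means mean below it, under half of replicates reach it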;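 further: signal also drops with host cell toxicity which is not excluded here; 0% = plate median of DMSO wells and 100% = zero luminescence signal; higher percent means less beta-gal luminescence so fewer parasites; stock transfer was 50 nL into about 50 µL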
AF4-AF9 inh: inhibitors of human MLL-AF4/AF9 interaction; P42568; AlphaScreen, biotin-AF4 peptide binding to FLAG-AF9; inhibition, % at 10 µM; 0.47% of 350,000 active; AID 651704;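 active means every replicate reaching a set inhibition limit, whatever the replicate mean, cut at about 25% in these data; inconclusive means mean inhibition reaches that limit but some replicates miss it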;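 further: 0% = plate neutral control median and 100% = total signal loss; the record names both 10 and 1 µM as test concentration; the first replicate is given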
Target sequence (P42568 whole entry, looked up): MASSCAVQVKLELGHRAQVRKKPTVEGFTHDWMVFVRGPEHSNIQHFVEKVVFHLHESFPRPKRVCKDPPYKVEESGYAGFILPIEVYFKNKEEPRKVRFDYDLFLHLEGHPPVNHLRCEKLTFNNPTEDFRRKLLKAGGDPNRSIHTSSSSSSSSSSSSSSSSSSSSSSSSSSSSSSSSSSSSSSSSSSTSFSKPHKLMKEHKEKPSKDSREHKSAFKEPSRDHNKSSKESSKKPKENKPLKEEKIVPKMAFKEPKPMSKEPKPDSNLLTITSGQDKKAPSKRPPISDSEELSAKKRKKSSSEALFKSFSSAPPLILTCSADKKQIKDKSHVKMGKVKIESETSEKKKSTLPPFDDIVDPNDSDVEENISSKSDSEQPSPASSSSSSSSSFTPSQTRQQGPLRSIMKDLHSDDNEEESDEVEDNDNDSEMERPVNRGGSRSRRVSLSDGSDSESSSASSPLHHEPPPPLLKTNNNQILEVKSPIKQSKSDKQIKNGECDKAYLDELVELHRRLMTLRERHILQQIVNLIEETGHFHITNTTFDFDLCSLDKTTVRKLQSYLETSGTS
FGF22 binding: FGF22 (human) thermal shift binding. recombinant FGF22 thermal shift, SYPRO orange fluorescence; percent of sucrose octasulfate shift, DMSO zero. 1.5% of 340,000 active. calls only at 9.99 µM. AID 651658;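 active means melting point raised past a set limit in the mean and every replicate; inconclusive means no clear call; three in four hits are not shown here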
Target sequence (Q9HCT0 whole entry, looked up): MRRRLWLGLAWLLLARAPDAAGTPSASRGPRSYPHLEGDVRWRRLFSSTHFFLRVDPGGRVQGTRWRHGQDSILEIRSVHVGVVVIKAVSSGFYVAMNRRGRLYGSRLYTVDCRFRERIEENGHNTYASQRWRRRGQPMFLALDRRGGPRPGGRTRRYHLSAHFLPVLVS
A1 inh: inhibitors of the anti-apoptotic protein A1, read as caspase activation; MEF A1-2A-BIM cells, Caspase-Glo 3/7 luminescence, 3 h; percent of clofoctol response, vehicle zero; caspase activation, % (no concentration beside the values); AID 2462; 0.066% of 330,000 active;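 active means over half of replicate activation scores above 10%, or exactly half above 10 with the replicate mean above 10; inconclusive means replicate mean below 10 yet half the replicates above 10; inactive means over half of replicates below 10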;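 further: wells of about 30 µL received 50 nL stock; many hits fall short of the cut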
UCH37 DUB inh: blocks the human deubiquitinase UCH37 | purified proteasome/UCH37, Ub-AMC cleavage fluorescence | inhibition, % (test concentration not listed) | 0.33% of 330,000 active | AID 588478;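 active means mean of two replicates above 20%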;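 further: 0% = compound-free wells with enzyme and 100% = wells lacking proteasome; stock transfer was 100 nL into about 20 µL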
Target sequence (Q9Y5K5 whole entry, looked up): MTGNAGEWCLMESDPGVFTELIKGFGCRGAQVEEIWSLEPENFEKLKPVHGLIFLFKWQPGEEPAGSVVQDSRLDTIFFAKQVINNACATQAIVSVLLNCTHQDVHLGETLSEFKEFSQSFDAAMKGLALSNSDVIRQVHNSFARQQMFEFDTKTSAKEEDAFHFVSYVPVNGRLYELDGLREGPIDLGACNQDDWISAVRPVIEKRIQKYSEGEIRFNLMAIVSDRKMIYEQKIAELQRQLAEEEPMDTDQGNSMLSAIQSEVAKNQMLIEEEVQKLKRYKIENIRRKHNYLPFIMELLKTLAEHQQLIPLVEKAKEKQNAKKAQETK
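assay system = human UCH37 enzyme supplied as purified proteasome complex | amount = proteasome at 0.15 nM in the dispensed enzyme solution | schedule = 30 min compound-proteasome preincubation then 25 min substrate reaction, room temperature | measured by = fluorescence, ex 355 nm, em 460 nm | benchmarks = no-proteasome wells (full inhibition) and compound-free wells (no inhibition)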
E coli growth: inhibitors of Escherichia coli growth. AID 1053175. 0.21% of 330,000 active. OD600, 23 h; hits give low values. OD600 absorbance (test concentration not listed);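 active means OD600 absorbance below the run mean of sample wells minus 3.6 SD, in any replicate, cut at about 0.56 in these data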;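 further: stock transfer was 300 nL into about 60 µL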
Ecoli rRNA inh OD600: also measured in Ecoli rRNA inh; calls as there; OD600 change, %; measured here: OD600 growth;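 optical density of the mix in the first replicate; 0 = DMSO median and -100 = no signal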
Ecoli rRNA inh RFP: recorded beside Ecoli rRNA inh, whose call it bears; RFP signal change, %; measured here: RFP humanized mutant strains;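 first replicate; 0 = DMSO median and -100 = no signal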
Numbers without * were called inactive; i = inactive; u = inconclusive; x = no result given; & = joins results of further samples.

SMILES	Beta cell apopt	Ecoli rRNA inh	Ecoli rRNA inh OD600	Ecoli rRNA inh RFP	T cruzi repl	AF4-AF9 inh	FGF22 binding	A1 inh	UCH37 DUB inh	E coli growth
COc1ccc(/C=C/C(=O)c2ccc(O)cc2)cc1COc1ccc(F)cc1	8	-44	-70	-21	-4	11	i	0.9	6.7	0.7
CC(=O)Nc1ccc(Cl)c(-c2nc3ncccc3o2)c1	2	5	0	4.0	-5	-0.4	i	0.8	-2.5	0.68
CCOCCN1CCN(c2c(C)c(C)nc3cc(-c4cc(OC)cc(OC)c4)nn23)CC1	25	1&-3	-3&2	-3.9&-4.0	10	-8.0	i	0.5	-7.7	0.7
Cc1cccc(N(Cc2cc3ccc(C)cc3[nH]c2=O)S(=O)(=O)c2ccccc2)c1	-4	-1	-3	-3.1	12	-3.3	i	-1.1	-6.7	0.72
Clc1cccc(-c2nc(-c3ccc(-c4nn[nH]n4)cc3)no2)c1	3	-33	-38	1.0	x	-2.1	i	-13	-0.4	0.63
O=C1c2cccc3cccc(c23)C(=O)N1Nc1ccccc1	-1	x	x	x	-20	1.9	i	0.2	4.9	0.66
O=C1Nc2cc(C(=O)NCC3CCCO3)ccc2S/C1=C/c1ccccc1F (centres undefined)	6	2	3	1.2	15	-2.0	i	0.5	-8.8	0.7
COc1ccc(/C=C2/N=C3CCCCCN3C2=O)cc1	-5	-1	3	-2.4	-5	7.1	i	0.5	11	0.67
O=C(NCCc1c[nH]c2ccccc12)OCCSS(=O)(=O)O	-4	11	12	-0.9	-19	-2.5	x	0.1	6.5	0.72
CCCCNc1nc(CC)c2c(c1C#N)CCCC2	-4	x	x	x	12	x	x	0.3	-6.4	0.71
N=c1ccccn1CC(O)COc1ccccc1 (centres undefined)	-4	x	x	x	-7	x	x	0.8	2.6	0.71
C[C@H](CO)N1C[C@H](C)[C@@H](CN(C)S(C)(=O)=O)Oc2c(NC(=O)C3CC3)cccc2C1=O	0	5&11	6&22	-4.5&-4.0	x	-1.7&-18	i	-0.1	1.2	x
O=C1CC(NC23CC4CC(CC(C4)C2)C3)C(=O)N1c1ccc2c(c1)OCO2 (centres undefined)	-4	x	x	x	-13	x	x	0.2	1.5	0.71
CC1=C(C(=O)OC(C)C)[C@@H](c2ccc(C)o2)NC(=O)N1	-7	9	7	0.3	-16	1.2	i	0.7	0.5	0.68
CCOc1ccccc1NC(=O)C1(S(=O)(=O)c2ccc(Cl)cc2)CC1	5	-13	-19	-2.2	16	-8.7	i	0.0	-0.4	0.69

Next part; the last 2 above are carried over.
SMILES	Beta cell apopt	Ecoli rRNA inh	Ecoli rRNA inh OD600	Ecoli rRNA inh RFP	T cruzi repl	AF4-AF9 inh	FGF22 binding	A1 inh	UCH37 DUB inh	E coli growth
CC1=C(C(=O)OC(C)C)[C@@H](c2ccc(C)o2)NC(=O)N1	-7	9	7	0.3	-16	1.2	i	0.7	0.5	0.68
CCOc1ccccc1NC(=O)C1(S(=O)(=O)c2ccc(Cl)cc2)CC1	5	-13	-19	-2.2	16	-8.7	i	0.0	-0.4	0.69
COC(=O)c1cc(C(=O)c2cc(Br)ccc2O)coc1=N	2	0	6	-1.7	-13	-0.3	i	-0.1	-4.0	0.62
c1ccc(COC2CCCN(Cc3nc(Cc4ccccc4)no3)C2)cc1 (centres undefined)	-1	-9	-19	-3.5	1	-2.2	i	0.1	5.1	0.7
CCCCCC(=O)N=Nc1c(O)[nH]c2ccc([N+](=O)[O-])cc12	3	x	x	x	12	x	x	0.2	0.7	0.65
COc1cc(CNC2CCCCCCC2)cc(Cl)c1OCC(N)=O	2	7	7	0.2	-18	2.2	i	-0.4	0.4	0.63
O=C(Nc1ccnn1C1CCN(Cc2cccc(OCCO)c2)CC1)C1CCCC1	-2	10	11	0.6	5	0.9	i	0.4	-2.3	0.72
COc1ccc(N2CCN(C(=O)c3cccc(S(=O)(=O)N4CCc5ccccc54)c3)CC2)cc1	9	-12	1	35	x	3.3	i	1.7	4.5	0.66
Cc1c(C(=O)N2CCCCC2)c(S(=O)(=O)N2CCc3ccccc32)c(C)n1C	-15	16	17	0.9	-3	1.5	i	0.6	1.8	0.64
CC1(C)Cc2c(sc3nc4n(c(=N)c23)CCC4)CO1	1	x	x	x	-11	x	x	-0.9	4.4	0.71
O=C(CSc1nnc(NC(=O)c2ccccc2Cl)s1)NC1CC1	x	0	3	-0.4	-8	7.1	i	0.5	0.9	0.64
O=C(Nc1nc2ccccc2s1)C1CCN(S(=O)(=O)c2cc([N+](=O)[O-])ccc2Cl)CC1	81*	-8	-10	7.4	59*	9.0	i	-0.8	3.3	0.69
COc1ccc(CNC(=O)C2CCN(S(=O)(=O)c3ccc4c(c3)NC(=O)CO4)CC2)cc1	2	15	15	8.3	6	-2.6	i	0.6	1.5	0.62
CCNc1ccc(N=Nc2c(C)n(C)n(-c3ccccc3)c2=O)cc1	-1	4	7	8.5	-12	-0.1	i	u	16	0.67
COc1ccc(-c2ccc(C#N)c(SCC(=O)Nc3sc4c(c3C#N)CCC4)n2)cc1	x	x	x	x	2	x	x	1.2	-36	0.71
CC(C)(C)NC(NC(=O)Cc1ccccc1)C(Cl)(Cl)Cl (centres undefined)	-1	x	x	x	-9	x	x	0.3	0.8	0.69
COc1ccccc1CCC(=O)NNC(=O)c1ccccc1	-3	3	21	4.4	-5	-3.2	i	0.2	5.2	0.71
CSc1ncc(CN2CCCCC2C(=O)Nc2ccc(Oc3ccccc3)nc2)cn1 (centres undefined)	39	-4	-11	5.1	10	-10	i	-0.8	x	x
Cc1c(Cl)cccc1NC(=S)C(=C([O-])c1ccc(Cl)s1)[n+]1ccccc1	x	-11*	10*	5.5*	x	4.3	i	x	10	0.68
CC(=O)Nc1ccc(N(C(=O)c2ccco2)C(C(=O)NC2CCCC2)c2ccc(N3CCOCC3)cc2)cc1 (centres undefined)	x	10	4	1.0	-7	0.2	i	2.0	2.5	0.73
COc1ccc(C(=O)NCC2CCCN2S(=O)(=O)c2cccs2)cc1OC (centres undefined)	0	1	-4	0.0	-4	-0.2	i	0.8	-0.3	0.65
O=C(NCCNS(=O)(=O)c1ccc(C(F)(F)F)cc1)N1CCOCC1	-1	0	6	-1.5	2	1.0	i	1.1	5.0	0.65
Cc1cc(NC(=O)/C=C/C(=O)N(c2ccccc2C)C(C(=O)NC2CCCC2)c2ccc(F)cc2)no1 (centres undefined)	9	x	x	x	8	x	x	0.1	0.4	0.7
CCOc1cc(NC(=O)C2CCCCC2)c(OCC)cc1NC(=O)c1ccco1	x	x	x	x	6	x	x	2.5	-32	0.74
O=C(NC(=S)Nc1ccccc1N1CCCCC1)c1ccco1	4	-9	-14	6.2	-7	5.3	i	-2.0	5.8	0.7
Cc1ccc2cc(CN(CCCO)S(=O)(=O)c3cccc4nsnc34)c(=O)[nH]c2c1C	-8	x	x	x	2	x	x	-0.4	8.0	0.69
O=C(Cn1c(-c2cscn2)nc2ccccc21)Nc1ccc(Cl)cc1	-1	x	x	x	9	x	x	0.5	0.5	0.7
Cc1ccc(CSc2ccc(-c3ccco3)nn2)cc1	3	-14	4	6.1	5	4.6	i	-5.9	3.8	0.72
CCOCc1cnc(C)nc1NCC(=O)c1c(C)[nH]c2cc(C)ccc12	-6	5	11	1.8	34	x	x	0.0	7.3	0.7
COCCOC(=O)C1=C(C)NC(SCC(=O)NC(C)(C)C)=C(C#N)C1c1ccco1 (centres undefined)	x	-6	-43	-21	8	3.7	i	x	-6.2&-6.4	0.69&0.73
Nn1c(SCC(=O)Nc2cc(C(F)(F)F)ccc2Cl)nncc1=O	-20	10	3	-1.0	-24	-1.4	i	1.0	6.5	0.66
C=CCN(C(=O)c1csnn1)C(C(=O)NC(C)(C)C)c1ccncc1 (centres undefined)	-2	7	11	-1.1	-12	-4.0	x	0.8	3.8	0.7
CCC1SC2=NC(C)=C(C(=O)OCCOC)C(/C=C/c3ccccc3OC)N2C1=O (centres undefined)	4	x	x	x	2	x	x	0.1	2.5	0.73
O=C(CN(CCc1ccccc1)C(=O)Cn1nnc(-c2cccs2)n1)NCc1ccco1	-1	x	x	x	16	x	x	0.2	4.1	0.73
O=C(Nc1ccc(Cl)cc1)Nc1ccc2c(c1)OCO2	-8	6	7	-0.4	1	-1.9	i	-3.0	2.3	0.69
O=C(Nc1ccc2nc3n(c(=O)c2c1)CCCC3)c1ccc(Cl)nc1	1	-1	-8	-1.7	12	-1.5	i	0.3	-0.9	0.71
CCN(c1ccc(OC)cc1)S(=O)(=O)c1ccc(-c2cc(C)no2)s1	4	-17	-27	-2.9	-5	-3.4	i	-0.8	4.1	0.71
CCOC(=O)C1C(c2cccs2)NC(=O)N(C)C1(O)C(F)(F)F (centres undefined)	-5	x	x	x	-1	x	x	0.3	2.3	0.75
COc1ccc(OC)c(C2N(c3ccc(Cl)cc3)C(=O)C3CCCN32)c1 (centres undefined)	-2	x	x	x	3	x	x	0.9	-3.8	0.72
CCC(C)NC(=O)C(Cc1ccccc1)NS(=O)(=O)c1ccc2c(c1)oc(=O)n2C (centres undefined)	-1	5	12	-2.1	-11	5.0	i	1.1	5.6	0.7
C=CCNS(=O)(=O)c1ccc2nsnc2c1	-4	x	x	x	-20	x	x	0.4	-0.8	0.65
CCC1CN(S(=O)(=O)c2ccc3c(c2)NC(=O)CC(=O)N3)c2cc(Cl)ccc2O1 (centres undefined)	6	-42	-56	-7.7	-16	0.8	i	0.1	3.3	0.71
Cc1nn(-c2cccc(Cl)c2)c2nc(C(F)(F)F)[nH]c(=O)c12	13	x	x	x	-15	1.2	i	-0.5	x	x
S=c1[nH]nc(CN2CCCCC2)n1Cc1ccccc1	-6	-6	-6	-8.5	1	-2.2	i	0.6	-1.1	0.68
C[C@@H](C(=O)Nc1ccc(SC(F)F)cc1)N1C(=O)C2CCCCC2C1=O (some centres undefined)	-3	-10	-5	3.3	x	-3.3	i	1.2	2.2	0.7
CCOP(=O)(OCC)/C(=C/N1CCCCC1)NC(=O)c1ccccc1	-3	19	17	-0.7	-7	-0.3	x	0.3	0.0	0.67
COc1ccc(-c2cc(C(=O)NCCCN3CCOCC3)c3cc(C(C)C)ccc3n2)cc1	5	-4	-12	16	23	2.9	i	-2.0	i	0.66
CCCC/C(C)=N/NC(=O)c1cn(-c2ccccc2)nc1-c1ccccc1	-3	-1	0	3.0	-3	-0.1	i	0.3	x	x
CCN1C(=O)[C@H]2[C@@H](c3ccc(-c4ccc(OC)cc4)c(OC)c3)N3CCCC[C@@]3(C(=O)OC)[C@H]2C1=O	11	2	-2	-0.5	26	x	i	-0.5	-0.5	x

Screening results: PubChem, several laboratories

Some of the compounds tested; the hit share may differ from the screen's.
